Tg IFNy HTS: T. gondii growth inhibition with IFN-gamma, primary screen, cell-based; AID 1259416, 2018; 69,000 compounds, 3.8% hits; Toxoplasma gondii growth in IFN-gamma-treated host cells; hits give low values; reference of the scale not given here; activity change, negative = inhibition, %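 (about 20 µM by stock and volumes)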;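 active means below -70%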;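 further: host cells are HeLa cells infected with Toxoplasma gondii; parasite growth read as luciferase light; one replicate is shown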
The depositor's hits bear a star; i = inactive. Some of the compounds tested; count on the stated rates, not on these rows.

Molecule | Tg IFNy HTS
CCCNC(=O)C[C@H]1CC[C@@H]2[C@H](COC[C@H](O)CN2Cc2ccncc2)O1 | -47
CO[C@H]1CN(C)C(=O)c2cc(NC(=O)NC(C)C)ccc2OC[C@H](C)N(Cc2ccccc2)C[C@H]1C | -24
Cc1cccc(-c2nc(CSc3nc4c(=O)[nH]c(C)nc4n3C)c(C)o2)c1 | -5
CC1CCN(c2ncnc3c2cnn3CC(=O)Nc2ccc(N3CCOCC3)cc2)CC1 | 77
CCC(C)N(Cc1ccsc1)Cc1nc[nH]c1C (stereo unspecified) | -5
CCn1c(CC2CCNCC2)nn(CC(=O)NCC2CCCO2)c1=O (stereo unspecified) | 4
O=C(CCn1cnc2cc(-c3noc(CCc4c[nH]c5ccccc45)n3)ccc21)N1CCCC1 | -19
CNc1nc(-c2cc(NCc3ccccn3)nc3[nH]ccc23)nc2c1CCC2 | 25
C(#Cc1ccc(C#CCN2CCCCC2)cc1)CN1CCCCC1 | 0
Cc1cc(CC(C)NC(=O)c2cc(C(C)C)no2)n[nH]1 (stereo unspecified) | 0
COc1ccc2c(c1)NC1(CCN(S(=O)(=O)c3cc(Cl)ccc3OC)CC1)c1cccn1-2 | 1
Cc1ccccc1S(=O)(=O)N1CCCCN2[C@H](CO)[C@H](c3ccc(C#CCN(C)C)cc3)[C@@H]2C1 | -39
O=C(Nc1ccc2c(c1)OCCO2)c1ccc2nsnc2c1 | i
COc1cc(-c2nc(CN(C)Cc3cccc(-n4cccn4)c3)c(C)o2)ccc1F | -2
O=C(c1ccc2c(c1)CCO2)N1C[C@H]2OC(=O)N(Cc3ccccn3)[C@H]2C1 | -3
COc1ccc(Cl)cc1NC(=O)Cn1nc2n(C)c3ccccc3n2c(=O)c1=O | -9
N#C[C@@H]1N[C@H](CO)[C@@H]1c1ccc(/C=C/c2ccccc2)cc1 | 23
O=C(c1ccccc1F)N1C[C@@H]2[C@H](c3ccccc31)[C@H](CO)N2Cc1ccc2c(c1)OCO2 | -1
COc1ccc(S(=O)(=O)N2CCC3(CC2)Nc2ccc(C)c(C)c2-n2cccc23)cc1 | -4
CCN1C(=O)C2(CCOCC2)c2cc(NC(=O)c3cccn3C)ccc21 | 85
COc1ccc(OCc2cccc(C(=O)NN)c2)cc1 | 29
COC(=O)C1CSCC/C1=N\Nc1ccc(Cl)cc1Cl (stereo unspecified) | 145
Cc1nc(-c2cnn(C)c2)nc2c1CN(Cc1ccc(F)cc1)CC2 | -44
CCc1ccccc1NC(=O)c1c(O)c2cccnc2n(-c2ccccc2)c1=O | -52
CCc1cnc(C)nc1N1CCN(c2ncccn2)CC1 | -4
Cn1c(Cn2nnc3ccccc32)nnc1SCC(=O)NC(C)(C)C | 15
COC(=O)c1sc2ccccc2c1OS(=O)(=O)c1ccc(C)cc1 | -44
CCOC(=O)c1coc(N2CCC3(CC2)C(=O)Nc2ccccc23)n1 | 48
COCCN1C[C@H]2CN(Cc3cnn(C)c3)C[C@H]2C1=O | 3
O=C1C[C@H]2[C@H](CCN2S(=O)(=O)c2cccc(F)c2)N1 | 98

Next compounds.
Molecule | Tg IFNy HTS
N#C[C@H]1[C@@H](c2ccccc2C2=CCCC2)[C@H](CO)N1C(=O)NC1CCCCC1 | -54
CCOc1ccc(-c2nc(Cn3c(=O)c4cccnc4n(-c4ccccc4)c3=O)c(C)o2)cc1 | 8
COCC#Cc1ccc([C@@H]2[C@@H](CO)N3C(=O)CN(C(=O)c4ccncc4)C[C@H]23)cc1 | -24
CCOC(=O)c1cnn(C(=O)c2snnc2C)c1N | 27
Cc1cc(C(F)(F)F)nn1CC(=O)N1CCCC1c1ccccc1Cl (stereo unspecified) | 50
CCC1CN(C(=O)CCc2n[nH]c(C)c2C)CCN1C(C)C (stereo unspecified) | 1
COc1ccc2[nH]c3c(c2c1)CCNC31C(=O)N(C)c2ccc(Br)cc21 (stereo unspecified) | 335
O=C(Nc1cccs1)Nc1ccccc1N1CCCCC1 | 69
O=C(C[C@H]1CC[C@@H](NS(=O)(=O)c2ccc(F)cc2)[C@@H](CO)O1)N1CCN(c2ccccc2)CC1 | -33
O=C(Cc1csc(-c2ccccc2)n1)N1CCCC1c1ccc2c(c1)OCCCO2 (stereo unspecified) | -47
O=C(Cn1c(=O)cc(C(=O)N2CCc3ccccc3C2)c2ccccc21)Nc1ccc2c(c1)OCCO2 | -11
O=C(Cc1ccccc1)Nc1cccc(NC(=O)c2ccnnc2)c1 | 6
CC(C)CCN1Cc2[nH]nc(C(=O)N3CCCC3)c2C1 | 2
O=C(O)CN1CC2(CCC(C(=O)Nc3cccc(F)c3)O2)C1 (stereo unspecified) | 0
O=C1CNC(=S)N1CCOc1ccccc1Cl | 20
Cc1ccc(Cl)cc1N(CC(=O)NCCCn1ccnc1)S(C)(=O)=O | 0
CS(=O)(=O)N1CCC2(CC1)CN(CCn1cccn1)C(=O)CO2 | 0
Cc1ccc(NC(=O)CN2C(=O)CCc3cc(S(=O)(=O)N4CCCC4)ccc32)cc1F | -4
CN(Cc1ccc(Sc2nncn2C)o1)C1Cc2ccccc2C1 | 5
CO[C@@H]1CCN(C(=O)c2ccc3[nH]ccc3c2)[C@H]1Cc1cnn(C)c1 | 2
O=C(c1ccn[nH]1)N1CC[C@H]2CN(Cc3cccc(Cl)c3)S(=O)(=O)[C@@H]2CC1 | 4
O=C(N(CCN(C(=O)C(F)(F)F)c1ccccc1)c1ccccc1)C(F)(F)F | 8
COc1ccc2cc(CN3CCCN(c4ccncc4)CC3)c(=O)[nH]c2c1 | -12
CN(Cc1c(C(=O)N(C)Cc2ccccc2)nc2ccccn12)CC1Cc2ccccc2O1 (stereo unspecified) | 21
Clc1cccc(CN2CCC3(COCc4cnc(-c5ccccc5)nc43)C2)c1 (stereo unspecified) | -64
Fc1ccc(CN(Cc2ccncc2)Cc2cccc(-n3cccn3)c2)cc1 | -17
CN1CCC(CN2CCN(C(c3ccccc3)c3ccccc3)CC2)CC1 | -32
CN(C)C(=O)c1ccc(-c2ccc([C@@H]3[C@H](C#N)N[C@H]3CO)cc2)cc1 | 5
COc1ccc(S(=O)(=O)Nc2ccc3c(c2)C(=O)N([C@@H](C)CO)C[C@@H](C)[C@@H](CN(C)S(=O)(=O)c2ccc(Cl)cc2)OCCCC[C@H](C)O3)cc1 | -128*
COc1cccc(S(=O)(=O)Nc2ccc3c(c2)C(=O)N(C)C[C@@H](OC)[C@H](C)CN(Cc2ccccc2F)[C@@H](C)CO3)c1 | -66

The last 7 compounds of the section above are carried over, then new ones follow.
Molecule | Tg IFNy HTS
CN(Cc1c(C(=O)N(C)Cc2ccccc2)nc2ccccn12)CC1Cc2ccccc2O1 (stereo unspecified) | 21
Clc1cccc(CN2CCC3(COCc4cnc(-c5ccccc5)nc43)C2)c1 (stereo unspecified) | -64
Fc1ccc(CN(Cc2ccncc2)Cc2cccc(-n3cccn3)c2)cc1 | -17
CN1CCC(CN2CCN(C(c3ccccc3)c3ccccc3)CC2)CC1 | -32
CN(C)C(=O)c1ccc(-c2ccc([C@@H]3[C@H](C#N)N[C@H]3CO)cc2)cc1 | 5
COc1ccc(S(=O)(=O)Nc2ccc3c(c2)C(=O)N([C@@H](C)CO)C[C@@H](C)[C@@H](CN(C)S(=O)(=O)c2ccc(Cl)cc2)OCCCC[C@H](C)O3)cc1 | -128*
COc1cccc(S(=O)(=O)Nc2ccc3c(c2)C(=O)N(C)C[C@@H](OC)[C@H](C)CN(Cc2ccccc2F)[C@@H](C)CO3)c1 | -66
CC1CCN(S(=O)(=O)c2ccc3c(ccc(=O)n3CC(=O)NCc3ccc(Cl)cc3)c2)CC1 | -64
CC(C)c1cc(C2CCN(C(=O)C(C)n3ccnc3C(C)C)CC2)[nH]n1 (stereo unspecified) | -3
CCOc1ccccc1-c1nc(CN(c2ccc(OC)cc2)S(=O)(=O)c2ccccc2)c(C)o1 | -43
COc1ccc(C(=O)N2CCN(S(=O)(=O)c3cc4c5c(c3)CCC(=O)N5CCC4)CC2)cc1 | -17
C[C@H](CO)N1C[C@H](C)[C@H](CN(C)C(=O)Nc2ccc3c(c2)OCO3)Oc2c(NC(=O)c3nc4ccccc4s3)cccc2C1=O | -21
COCc1cc(CN(C)Cc2cc3n(n2)CCCNC3)n[nH]1 | -2
O=C1NC(O)CCN1[C@@H]1O[C@H](CO)[C@@H](O)[C@H]1O (stereo partly specified) | 9
Cc1cc2sc(NC(=O)c3cccc(Cn4cncn4)c3)nc2cc1Cl | -47
Cc1cc(C)n2nc(CC(=O)N[C@H](C)Cn3c(=O)oc4ccccc43)nc2n1 | 1
CCN1C(=O)CCC2C1CCN2Cc1ccc2c(c1)OCO2 (stereo unspecified) | -64
O=C(c1ccco1)N(CCc1ccccc1)c1nc(-c2ccccc2)cs1 | -20
Cc1cnc2c(C(=O)N3CCN(Cc4csc(C)n4)CC3)cnn2c1 | -8
Cc1cn(CCC(=O)Nc2ccc(N3CCCCC3)cc2)c2ccccc12 | 177
CN(Cc1cccnc1)C(=O)c1coc(COc2cccc3cnccc23)n1 | -49
CC(=O)N1C(Cn2cccn2)CC2CN(C(=O)c3ccco3)CCC21 (stereo unspecified) | 3
C[C@@H]1CCCCO[C@H](CN(C)C(=O)c2ccncc2)[C@H](C)CN([C@@H](C)CO)C(=O)c2cc(NC(=O)CCC(F)(F)F)ccc2O1 | 19
O=C(NC1CCCCC1)[C@@H]1[C@@H](CO)[C@@H]2Cn3c(cccc3=O)[C@H]1N2Cc1cccnc1 | 3
COc1ccc(C2CN=NC23CSc2ccccc2C3=O)cc1 (stereo unspecified) | -82*
COc1cc2c(cc1OC)CC(=O)N(CCCN(C)C[C@@H]1Cc3cc(OC)c(OC)cc31)CC2 | 13
O=c1c(OC2OC(CO)C(O)C(O)C2O)c(-c2ccc(O)c(O)c2)oc2cc(O)cc(O)c12 (stereo unspecified) | 17
O=C(NCc1csc2ccccc12)c1ccco1 | -30
O=C(Nc1nc(-c2ccccn2)cs1)c1ccccc1CN1CCCCC1 | -14
CSc1ccc(OCc2ncc([N+](=O)[O-])n2C)cc1 | -40
O=C(NCCc1csc(C2CCN(C(=O)c3ccoc3)CC2)n1)C1CCC1 | -2
OC[C@H]1CCN(Cc2c(-c3ccc(F)cc3)nc3ccccn23)C[C@H]1O | 11
Cc1[nH]n2c(=O)c3c(nc2c1-c1cccs1)CCC3 | -11
CC(C)(C)c1ccc(-c2cc(=O)[nH]c(=O)o2)cc1 | 18
Cc1cccc(-c2ccc(C(=O)O)c(N3Cc4cnn(CCO)c4C3)n2)c1 | -44
COCCn1cnc2cc(C(=O)NCC3(c4ccc(C)cc4)CCOCC3)ccc21 | 3
C[C@@H]1CN([C@H](C)CO)C(=O)c2cccc(NS(=O)(=O)c3cn(C)cn3)c2O[C@H]1CN(C)Cc1ccc(Oc2ccccc2)cc1 | 5

The results go on:
Molecule | Tg IFNy HTS
C[C@@H]1CCCCO[C@@H](CN(C)S(=O)(=O)c2cn(C)cn2)[C@H](C)CN([C@@H](C)CO)C(=O)c2cc(N(C)C)ccc2O1 | 341
CC(C)Oc1ncnc2c1CCN(C(=O)N1CCOCC1)CC2 | -2
COC[C@@H]1CCC2C(CCN2C(=O)CCc2ccccc2)O1 (stereo partly specified) | -43
CCc1cccc(NC(=O)c2nc(Nc3ccccc3)c3ccccc3n2)c1 | -72*
c1ccc(Cn2c(N3CCNCC3)nc3ccccc32)cc1 | 14
Nc1nc(-c2ccc3c(c2)Cc2ccccc2-3)cs1 | -33
Cc1cccc2[nH]c(C3CCN(C(=O)CCn4cnnn4)CC3)nc12 | -4
Cc1cccc(CN2CCn3cc(CNC(=O)CC4CC4)nc3C2)n1 | -18
COc1ccc(-c2nccn2C2CCCC2)cc1Cn1cccn1 | 2
O=C(c1ccc(=O)[nH]c1)N1CCC(Cc2nncn2-c2ccccc2)CC1 | 9
CCCc1cc2c(cc1NC(=O)CCn1cnc3sc(C)c(C)c3c1=O)OCO2 | -37
OC[C@H]1[C@@H](c2ccc(C3=CCCC3)cc2)[C@@H]2CN(Cc3ccncc3)CCCCN12 | -27
CCCN1C(=O)CCc2cc(NC(=O)C(C)(C)C)ccc21 | 69
O=C(COc1cccc2ccccc12)Nc1ccc(CN2CCOCC2)cc1 | 18
O=C(Cn1c(=O)ccc2cc(S(=O)(=O)N3CCCC3)ccc21)Nc1ccc2c(c1)OCO2 | -14
COCC(=O)N1CC2(CN(Cc3ccc(Cl)cc3)C2)c2c([nH]c3cc(OC)ccc23)[C@H]1CO | -17
O=C(NCCO)c1ccc2[nH]c3ccccc3c2c1 | 18
COc1ccc(-c2nc(C)c(CCNS(=O)(=O)c3ccccc3)s2)cc1 | 154
COCC(=O)N1C[C@@H]2COC[C@@H](Cc3nc(C)no3)[C@H]2C1 | -62
COc1cccc(CCN2C[C@]34CN(c5ncc(C)cn5)C[C@@H](C[C@H]3S2(=O)=O)O4)c1 | 9
Cc1ccc(CNC(=O)c2nc(Nc3ccc(F)cc3)c3ccccc3n2)o1 | -48
CC(C)n1cc(C(=O)N2CCCC(c3n[nH]c(=O)n3-c3ccccc3)C2)cn1 (stereo unspecified) | -5
CC1CCCN(C(=O)c2nc(-c3ccc(Cl)cc3)n3c2CCCCC3)C1 (stereo unspecified) | -97*
c1csc(-c2cnc(N3CCCC3)nc2-c2nccs2)c1 | -8
C[C@@H]1CCCCO[C@@H](CN(C)C(=O)C2CCCCC2)[C@@H](C)CN([C@@H](C)CO)C(=O)c2cc(NS(=O)(=O)c3ccccc3)ccc2O1 | 88
C[C@H](CO)N1C[C@H](C)[C@H](CN(C)C(=O)Nc2ccnc(N3CCOCC3)c2)OCc2cnnn2CCCC1=O | 57
O=C(COc1ccccn1)N1CC(=O)N(CCc2ccccc2)C(=O)C1 | 6
CCN1C(=O)N(Cc2cccc(OC)c2)C(=O)C12CCN(C1CCSC1)CC2 (stereo unspecified) | 3
NC1(C(=O)O)CCN(Cc2cc(Cl)cc(Cl)c2)C1 (stereo unspecified) | 6
CCOc1ccccc1NC(=O)CC(=O)N1[C@H](C)CCC[C@@H]1C | 2
CCOC(=O)c1ccc(OCC#Cc2ccc(C(F)(F)F)cn2)cc1 | 11

Screening results from PubChem BioAssay.
